Source: PubChem BioAssay (National Center for Advancing Translational Sciences (NCATS))
Lassa entry inh: inhibitors of Lassa virus binding or cell entry; Potency, µM (top dose mostly 37.9 µM), for the others: at the top dose activity change, negative = inhibition, most hits filed as inhibitors; Lassa virus pseudotype entry inhibition, cell reporter; control for the full effect not named in the record; 300,000 compounds, 1.2% hits; active means well fitted inhibition curve with a large enough effect; inconclusive means small, poorly fitted or top-dose-only effect, or effect the other way; inactive means flat fitted curve, though single readings scatter; tested in HEK293 cells; further: on the % scale 0 is the no-effect control and ±100 the full control effect; nearly all actives have a fitted effect of over 50% in size; luciferase read-out
RE007 growth inh: less growth of the S. pombe RE007 Vpr strain; S. pombe RE007 Vpr strain, BacTiter-Glo ATP luminescence, 24 h; control for the full effect not named in the record; Potency, µM (highest dose often 92.2 µM), for the others: at the top dose activity change, negative = less growth; 360,000 compounds, 0.21% hits; AID 651644; active = well fitted falling curve with a large enough effect; inconclusive = small, poorly fitted or top-dose-only effect; inactive = no such curve, though single readings can be large or run the other way;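 further: on the % scale 0 is the no-effect control and ±100 the full control effect; nearly all actives have a fitted effect of over 50% in size; the assay follows cell death caused by Vpr and the record does not say whether a fall means rescue or toxicity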
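Fission yeast strain RE007, carrying one chromosomally integrated HIV-1 vpr copy, was seeded at OD 0.01 in PMG+AL medium with 23 nL pinned compound. After 24 h at 30 °C and 99% humidity, viability was read by BacTiter-Glo luminescence.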
NS1 function inh: blocks influenza NS1 protein function; 270,000 compounds, 0.4% hits; Potency, µM (top dose mostly 46.1 µM), inactives show top-dose activity, positive = more growth; AID 2326; S. cerevisiae slowed by influenza A NS1, growth recovery by OD600; further: actives are rising curves; nearly all actives have a fitted effect of over 50% in size
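Recovery from NS1-induced slow growth read by OD600 in budding yeast switched to galactose assay medium (pH 6.0, -URA) at 1:100 dilution. Compound 23 nl per well; the matching strain lacking NS1 serves as control.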
Cruzain inh Det: cruzain (T. cruzi) inhibition with detergent; Potency, µM, inactives show max response, negative = inhibition, hits mostly inhibitors; P25779; purified cruzain, Z-FR-AMC fluorescence, 0.01% Triton; 200,000 compounds, 0.43% hits; active means well fitted curve in the direction sought with a large enough effect; inconclusive means small, poorly fitted or top-dose-only effect, or another doubt; inactive means no such curve, though single readings can be large; an effect the other way counts as inactive or inconclusive;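 further: plate controls were neutral wells for no effect and buffer without enzyme for full effect; nearly all actives have a fitted effect of over 40% in size; top concentration of the series not given in the record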
Target sequence (P25779 123-467 limits assumed): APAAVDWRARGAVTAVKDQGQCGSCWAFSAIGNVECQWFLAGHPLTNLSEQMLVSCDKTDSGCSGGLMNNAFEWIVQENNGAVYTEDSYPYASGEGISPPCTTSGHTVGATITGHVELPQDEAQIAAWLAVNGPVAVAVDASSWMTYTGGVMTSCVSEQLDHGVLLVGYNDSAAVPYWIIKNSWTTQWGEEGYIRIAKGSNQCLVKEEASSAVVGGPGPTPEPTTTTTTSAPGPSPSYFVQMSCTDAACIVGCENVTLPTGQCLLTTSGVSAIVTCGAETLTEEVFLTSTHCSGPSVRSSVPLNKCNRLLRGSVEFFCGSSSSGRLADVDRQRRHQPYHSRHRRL
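In this qHTS format, compounds are incubated with 1.5 nM cruzain for 15 min at room temperature before 2 uM Z-FR-AMC is added. Release of AMC is followed at 360/450 nm, and progress is taken as the 60 s fluorescence difference.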
StopGo reporter: lowers the luciferase signal of an FMDV 2A StopGo reporter; human cells with a luciferase reporter of 2A StopGo recoding; control for the full effect not named in the record; Potency, µM (doses to about 57.9 µM), for the others: top-dose signal change, negative = less light; 410,000 compounds, 1.2% hits; AID 1159524; active = well fitted falling curve with a large enough effect; inconclusive = small, poorly fitted or top-dose-only effect; inactive = no such curve, though single readings can be large or run the other way; tested in HEK293T cells; further: on the % scale 0 is the no-effect control and ±100 the full control effect; nearly all actives have a fitted effect of over 45% in size; luciferase light after 4 h
Marburg entry inh: Marburg virus entry inhibition; Marburg virus pseudotyped entry inhibition, cell reporter; control for the full effect not named in the record; about a third of the inactives were read at about 46 µM; Potency, µM (top dose mostly 37.8 µM), for the others: at the highest dose activity change, negative = inhibition, actives largely listed as inhibitors; 300,000 compounds, 1.8% hits; AID 540276; active = well fitted inhibition curve with a large enough effect; inconclusive = small, poorly fitted or top-dose-only effect, or effect the other way; inactive = flat fitted curve, though single readings scatter; tested in HEK293 cells; about a fifth of its hits are not listed in these tables; further: on the % scale 0 is the no-effect control and ±100 the full control effect; luciferase read-out
Cruzain noTriton: blocks cruzain activity in detergent-free assay; P25779; purified cruzain, Z-FR-AMC fluorescence, no detergent; Potency, µM, inactives show max response, negative = inhibition, hits mostly inhibitors; 200,000 compounds, 2.3% hits; AID 1476; active means well fitted curve in the direction sought with a large enough effect; inconclusive means small, poorly fitted or top-dose-only effect, or another doubt; inactive means no such curve, though single readings can be large; an effect the other way counts as inactive or inconclusive;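 further: plate controls were enzyme without inhibitor for no effect and buffer without enzyme for full effect; nearly all actives have a fitted effect of over 40% in size; top concentration of the series not given in the record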
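Purified cruzain at 1.5 nM, pre-incubated 15 min with compound at room temperature in 100 mM sodium acetate pH 5.5, 5 mM DTT, 0.00005% Triton X-100. Reaction started with 2 uM Z-FR-AMC; AMC fluorescence increase over 60 s gives rate.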
SARS PLpro yeast: SARS-CoV PLP inhibition in yeast | S. cerevisiae expressing SARS-CoV PLpro, growth rescue; control for the full effect not named in the record | Potency, µM (doses to about 32.9 µM), for the others: top-dose activity, positive = growth rescue | 330,000 compounds, 0.19% hits | AID 485353; further: 0% is about no effect; nearly all actives have a fitted effect of over 55% in size; growth read by luminescence after 48 h
Starred values were filed as active, the others as inactive; ? = inconclusive; / = no result given; & = joins results of further samples; [ ] = another dose, or the depositor's remark. Unless noted, the call rests on the fitted dose curve; in most records, active means well fitted rising curve with a large enough effect; inconclusive means small, poorly fitted or top-dose-only effect; inactive means no such curve, though single readings can be large or run the other way. Potency means the concentration at half of the fitted maximal effect. An unsorted share of the library; about 4.6% have a hit in one of these screens.

SMILES	Lassa entry inh	RE007 growth inh	NS1 function inh	Cruzain inh Det	StopGo reporter	Marburg entry inh	Cruzain noTriton	SARS PLpro yeast
CNC(=O)CO/N=C/c1ccc(N(C)C)cc1	-25.5%[46.1 µM]	0.4%	/	/	20.9%	?	/	0.5%
CCOc1ccc(OCC)c(NC(=O)CSc2nc3c(c(=O)n(C)c(=O)n3C)n2CC)c1	-1.7%	-18.7%	-0.8%	0.3%	?	6.8%&-23.7%	?	7.3%
O=C(Nc1noc2ccccc12)c1cccc(Cl)c1Cl	?	/	/	-4.5%	5.7%	?	25.1µM*	/
COc1ccc(C(=O)NNC(=O)CSc2nc3c(c(=O)n(C)c(=O)n3C)n2C)cc1	-2.1%	-8.4%	7.2%	/	12.0%	-3.0%	/	0.0%
O=C(N/N=C/c1cccs1)c1c[nH]c2ccccc12	28.2%	17.5%	-11.1%	-8.2%	41.8%[activator]	?	-2.5%	11.9%
CCN(CC)C(=O)c1ccc2c(c1)N(Cc1c(F)cccc1Cl)C(=O)c1ccccc1S2	?	/	/	-5.5%	7.7%	?	-5.7%	/
COc1ccc(Cl)cc1NC(=O)Cn1c(NCCO)nc2ccccc21	?	-23.5%	/	/	0.0%	1.0%	/	-1.2%
O=C(NNC(=S)Nc1ccc(Cl)c(Cl)c1)c1ccccn1	/	5.6%	-52.4%	/	12.4%	/	/	-4.1%
O=C(O)Cc1ccc(NC(=O)Cc2ccc3ccccc3c2)cc1	-13.7%[46.1 µM]	3.1%	21.1%	/	2.5%	16.8%[46.1 µM]	/	-6.7%
COCCOc1ccc(C(F)(F)F)cc1NC(=O)COC(=O)C12CC3CC(CC(O)(C3)C1)C2	3.3%	8.9%	-1.1%	/	-9.9%	-2.6%	/	-3.2%
O=C(NS(=O)(=O)Oc1cccc(Cl)c1Cl)OC[C@@H]1CCCN2CCCCC12 (stereo partly drawn)	16.2%	8.4%	-0.1%	-1.1%	4.9%	-3.0%	11.4%	1.3%
COc1ccc(N2CCN(c3nc4c(c(=O)[nH]c(=O)n4C)n3Cc3cccc(C)c3)CC2)cc1	-5.9%&6.9%	/	-34.3%	-10.8%	?	3.5%&5.3%	17.7%	2.1%
c1ccc(CNc2nc3ccccc3c3nc(-c4ccccc4)nn23)cc1	/	/	/	-0.9%	-18.1%	-11.4%[46.1 µM]	13.3%	/
COc1ccc(CCNC(=O)CCS(=O)(=O)c2cccc3nsnc23)cc1OC	9.9%	8.7%	-2.2%	-9.2%	4.4%	-28.1%&-28.1%	-9.9%	1.8%
Cc1ccc(S(=O)(=O)N2CCCCCC2)cc1[N+](=O)[O-]	-3.7%	-15.3%	-14.0%	-5.8%	-11.7%	20.7%	-1.5%	20.9%
COc1ccc(OC)c(NC(=O)CSc2nc3ccccc3cc2Cc2ccccc2)c1	-13.9%	-11.8%	15.7%	2.1%	/	?	20µM*	7.3%
Cc1ccc2c(c1)N(CCC(=O)NCC1CCCO1)C(=O)CO2 (stereo not drawn)	10.5%	33.0%	4.1%	1.3%	10.6%	17.2%	-0.1%	2.5%
c1ccc2c(c1)CN1CCCC1=N2	6.0%[46.1 µM]	-11.0%	2.4%	1.2%&-5.7%	-14.4%&7.1%&-5.3%	2.9%[46.1 µM]	?	-4.7%
O=C(Nc1ccc(N2CCCC2)c(Cl)c1)c1ccc([N+](=O)[O-])cc1	0.9%	3.4%	2.1%	-1.7%	-17.2%	-1.7%	11.8%	1.1%
Cc1ccnc(NS(=O)(=O)c2ccc(NC(=O)CC(C)c3ccccc3)cc2)n1 (stereo not drawn)	3.2%	4.3%	16.0%	/	10.6%	-1.3%[46.1 µM]	/	1.3%
CCc1ccc(NC(=O)CSCCN2C(=O)c3ccccc3C2=O)cc1	0.2%	16.2%	-29.3%	-6.8%	-22.0%	6.8%	5.6%	12.7%
CC(C)Cn1c(N)c(C(=O)COC(=O)CN2C(=O)C3CC=CCC3C2=O)c(=O)n(C)c1=O (stereo not drawn)	?	4.1%	-2.2%	/	?	4.4%[46.1 µM]	/	2.6%
O=C(NCc1ccccc1)c1ccc(/C=N/O)nc1	1.3%	7.1%	-2.7%	-0.6%	6.5%	?	6.0%	1.5%
Cc1cc(Cl)nc(NC(=O)Nc2cccc(Cl)c2)n1	-1.0%[46.1 µM]	6.1%	-21.2%	/	42.0%[activator]	6.9%[46.1 µM]	/	-12.0%
COc1ccc(C(=O)c2cn(Cc3ccc(F)cc3)c3ccc(C)cc3c2=O)cc1	?	/	/	-3.1%	-23.7%	-27.3%[46.1 µM]	-3.6%	/
COc1cccc(NC(C)C(=O)N2CC(C)OC(C)C2)c1 (stereo not drawn)	8.3%	-3.6%	-0.6%	0.1%	14.9%	1.9%	12.3%	-2.1%
CC(C)NC(=O)c1ccccc1NC(=O)C1CCCO1 (stereo not drawn)	3.9%	13.6%	5.4%	-0.5%	-18.5%	3.1%	-1.9%	-5.8%
NS(=O)(=O)c1ccc(NC(=O)COC(=O)c2ccc(S(=O)(=O)N3CCOCC3)cc2)cc1	9.5%[46.1 µM]	-19.4%	/	/	0.1%	1.8%[46.1 µM]	/	-0.9%
CC(C)(CNc1ccc([N+](=O)[O-])cc1Cl)CNS(C)(=O)=O	13.6%	34.6%	-8.2%	-8.9%	-12.2%	7.1%	-3.2%	-3.1%
O=C(Nc1ccc2oc(-c3cccc4c(Br)cccc34)nc2c1)c1cccc(Cl)c1	-1.6%[46.1 µM]	/	/	-0.7%	-19.1%	/	-4.5%	/
COc1ccc(S(=O)(=O)NCC(=O)NC2CC2)cc1OC	/	4.7%	7.0%	/	-7.0%	/	/	-5.8%
CC(=O)Nc1ccc2nc(SCc3ccccc3)sc2c1	10.6%[46.1 µM]	/	/	-10.5%	75.3%[activator]	2.4%[46.1 µM]	18.9%	/
COc1ccc(CN2CCN(C(=O)C3CCC(CNS(=O)(=O)c4ccccc4)CC3)CC2)c(OC)c1OC (stereo not drawn)	-7.0%[46.1 µM]	1.5%	/	/	?	?	/	-0.2%
COc1ccccc1N1CCN(C2CCCN(C(=O)CCc3ccccn3)C2)CC1 (stereo not drawn)	?	-4.5%	10.5%	/	-8.9%	?	/	-7.9%
COCCCNC(=O)c1c(N)n(Cc2ccco2)c2nc3ccccc3nc12	/	-7.4%	3.1%	/	?	/	/	-1.0%
Cc1ccccc1OCC(=O)NC1=NCCS1	12.2%	-19.5%	-8.1%	0.0%	26.3%	?	10.8%	-4.6%
CC(C)Nc1nc(-c2ccccc2)nc(-n2ccnc2)n1	0.0%	-3.2%	-34.2%	5.3%	-3.0%	?	-16.9%	-12.6%
COc1ccc(CN2CCCC(C(=O)N3CCCC3)C2)c(OC)c1 (stereo not drawn)	-9.0%[46.1 µM]	-7.2%	5.5%	/	-17.6%	7.5%[46.1 µM]	/	0.2%
COc1ccc(CCNC(=O)c2ccc3c(c2)N(Cc2ccccc2C)C(=O)c2ccccc2S3)cc1OC	?	/	/	0.6%	-22.4%	/	-16.8%	/
c1ccc(Cc2nn3c(-c4ccncc4)nnc3s2)cc1	?	8.2%	-53.8%	1.4%	12.3%	-1.2%	?	-7.6%
COc1ccc(Cc2nc(-c3cccnc3)no2)cc1OC	/	4.7%	1.0%	/	7.3%	/	/	0.6%
CCCS(=O)(=O)n1nc(-c2ccc(C)cc2)cc1N	/	3.8%	-2.7%	1.8%	21.4%	/	2.7%	1.9%
O=C(c1cccc(F)c1)N1CCN(c2ccc([N+](=O)[O-])c(N3CCOCC3)c2)CC1	-2.5%	-1.3%	-11.2%	-4.3%	-27.4%	-18.4%	-3.5%	1.4%
CC(=O)N1CCc2cc(Br)cc(S(=O)(=O)NCCCN3CCCC(C)C3)c21 (stereo not drawn)	1.1%	-0.5%	6.0%	4.3%	16.8%	-8.5%&2.8%	-2.6%	1.4%
O=C(COc1ccc(Cl)cc1Cl)Nc1ccc(C(=O)Nc2ccccc2C(=O)O)cc1	/	-1.4%	?	/	-1.0%	/	/	2.7%
CCCC(=O)N1CCN(c2nnc(-c3ccccc3)c3ccccc23)CC1	/	13.5%	-11.6%	/	-27.8%	/	/	-1.1%
O=C(c1ccc(S(=O)(=O)N2CCOCC2)cc1)N(Cc1ccco1)Cc1cccs1	9.1%	7.0%	-9.6%	1.9%	-21.1%	9.8%	4.7%	-3.4%
COc1cc(C(CC(=O)Nc2ccc(F)cc2F)N2Cc3ccccc3C2=O)cc(OC)c1OC (stereo not drawn)	2.0%[46.1 µM]	/	/	-10.0%	54.0%[activator]	/	-10.3%	/

Exported as labelled records: four of the compounds above.
Structure: O=C(c1cccc(F)c1)N1CCN(c2ccc([N+](=O)[O-])c(N3CCOCC3)c2)CC1
  Lassa entry inh: -2.5%; RE007 growth inh: -1.3%; NS1 function inh: -11.2%; Cruzain inh Det: -4.3%; StopGo reporter: -27.4%; Marburg entry inh: -18.4%; Cruzain noTriton: -3.5%; SARS PLpro yeast: 1.4%
Structure: CC(=O)N1CCc2cc(Br)cc(S(=O)(=O)NCCCN3CCCC(C)C3)c21 (stereo not drawn)
  Lassa entry inh: 1.1%; RE007 growth inh: -0.5%; NS1 function inh: 6.0%; Cruzain inh Det: 4.3%; StopGo reporter: 16.8%; Marburg entry inh: -8.5%&2.8%; Cruzain noTriton: -2.6%; SARS PLpro yeast: 1.4%
Structure: O=C(COc1ccc(Cl)cc1Cl)Nc1ccc(C(=O)Nc2ccccc2C(=O)O)cc1
  Lassa entry inh: /; RE007 growth inh: -1.4%; NS1 function inh: ?; Cruzain inh Det: /; StopGo reporter: -1.0%; Marburg entry inh: /; Cruzain noTriton: /; SARS PLpro yeast: 2.7%
Structure: CCCC(=O)N1CCN(c2nnc(-c3ccccc3)c3ccccc23)CC1
  Lassa entry inh: /; RE007 growth inh: 13.5%; NS1 function inh: -11.6%; Cruzain inh Det: /; StopGo reporter: -27.8%; Marburg entry inh: /; Cruzain noTriton: /; SARS PLpro yeast: -1.1%
